Sa growth inh – S. aureus growth inhibition at 42 and 30 °C, primary screen, LtaS inhibitor project, RN4220, two temperatures | relative growth, % (test concentration not listed) | hit rate 0.53% among 170,000 | OD600, 20 h, 42 °C; active compounds read low;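 active = growth at 42 °C up to 50% and 20 or more points under that at 30 °C, or under 10% at both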;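 note: 300 nL library stock went into each well; scaled to the means of positive and negative controls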
GIV-Gai inh – inhibitors of GIV peptide binding to Galpha-i3, primary screen, biochemical, fluorescence polarization, FITC-GIV GBA peptide, rat Galphai3. 90 min; active compounds read low; scaled: aluminum fluoride 0%, vehicle 100%. AID 1224905, 2016. hit rate 0.42% among 210,000. Guanine nucleotide-binding protein G(i) subunit alpha-3 (Rattus norvegicus), P08753. percent of control (FP), % (concentration not given with the values);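 active = replicate mean at 85% of control or lower, very high polarization wells dropped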;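 note: wells of about 15 µL received 100 nL stock; the first replicate is given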
Target sequence (P08753 whole entry, looked up): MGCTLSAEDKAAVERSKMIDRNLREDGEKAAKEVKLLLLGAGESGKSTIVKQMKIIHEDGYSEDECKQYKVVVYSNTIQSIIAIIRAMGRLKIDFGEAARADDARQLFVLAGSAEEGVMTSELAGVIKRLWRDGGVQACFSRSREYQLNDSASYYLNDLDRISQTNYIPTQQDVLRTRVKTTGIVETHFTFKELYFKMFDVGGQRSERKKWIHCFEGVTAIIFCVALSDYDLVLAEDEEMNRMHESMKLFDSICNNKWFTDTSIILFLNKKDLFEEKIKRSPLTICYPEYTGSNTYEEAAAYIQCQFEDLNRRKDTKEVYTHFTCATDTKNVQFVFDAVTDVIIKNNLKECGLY
HCMV NEC inh – inhibitors of HCMV UL50-UL53 interaction, biochemical, HTRF | normalized percent inhibition | hit rate 0.15% among 190,000 | inhibition, % (test concentration not listed) | AID 1918969, 2023;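 active = both replicates at 50% or more, plus weaker picks with an unusually low signal ratio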;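 note: stock transfer was 100 nL into about 20 µL; 0% = negative control wells and 100% = wells with untagged competitor protein; inactives centre near -12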
Sa growth inh second temp – also measured in Sa growth inh; calls as there; relative growth, %; measured here: growth at 30 °C;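 optical density after 20 h as mean of two plates; 100% = untreated growth and lower means inhibition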
* marks the source's active call; other numbers are inactive results; . = no result given.

| SMILES | Sa growth inh | Sa growth inh second temp | GIV-Gai inh | HCMV NEC inh |
| --- | --- | --- | --- | --- |
| O=C(Nc1ccccc1)Nc1cccc(-c2noc(C3CC(=O)N(c4ccccc4)C3)n2)c1 (stereo not given) | . | . | 102.0 | -29.9 |
| CCc1ccc(S(=O)(=O)c2nnn3c2nc(NCc2cccc(OC)c2)c2cc(Cl)ccc23)cc1 | 108.4 | 84.4 | 95.3 | -28.0 |
| CCOc1ccc(-c2nnc(N(C(=O)C3CCC3)C(C)C)s2)cc1 | 104.5 | 80.4 | 102.8 | -7.5 |
| CCCCNc1ccc(-c2nc(-c3ccccn3)no2)cc1[N+](=O)[O-] | 81.5 | 95.6 | 97.8 | -23.5 |
| CS(=O)(=O)c1ncc(Cl)c(C(=O)N(Cc2ccccc2)c2ccccn2)n1 | 51.6 | 21.3 | 104.7 | -5.8 |
| COc1cc(OC)c(C(=O)OCCOc2ccccc2C)cc1OC | 102.9 | 93.6 | . | -7.6 |
| CC(c1ccccc1)C1CC(=O)N(Cc2ccccc2)C1=O (stereo not given) | 108.8 | 96.1 | 105.2 | 1.8 |
| Cc1nnc(N2CCC(C(=O)N3CCCCC3)CC2)c2nn(-c3ccccc3)c(C)c12 | 91.2 | 99.9 | 106.4 | . |
| CC(C)n1c(=O)c2oc3ccccc3c2n(Cc2ccccc2)c1=O | 98.2 | 90.4 | 96.4 | . |
| O=C(CCc1nc2sc3c(c2c(=O)[nH]1)CCCC3)Nc1ccc(F)c(F)c1 | . | . | 96.6 | -15.8 |
| N/C(=N\OC(=O)c1ccc(Br)o1)c1ccncc1 | 92.8 | 85.6 | 103.0 | -27.3 |
| CCCCC(=O)Nc1ccc(C(=O)OCc2cc(=O)n3ccsc3n2)cc1 | 113.0 | 82.3 | 105.0 | . |
| CCC(=O)N1CCc2cc(Br)cc(S(=O)(=O)N3CCCC(C(=O)NCc4cccc(OC)c4)C3)c21 (stereo not given) | 86.7 | 92.3 | 103.5 | 22.0 |
| COc1ccc(-c2nc(CN3CCCC3c3cccs3)cs2)cc1OC (stereo not given) | 100.7 | 95.3 | . | -29.9 |
| Cc1ccc(C(=O)c2cc(F)c(N3CCOCC3)cc2Cl)cc1C | 101.8 | 49.7 | 104.5 | . |
| Cn1nc(C(F)(F)F)cc1OC(=O)c1cccs1 | 95.4 | 89.6 | 98.0 | -14.7 |
| CC(C)(C)S(=O)(=O)/C(C#N)=C/Nc1ccc(OC(F)(F)F)cc1 | 103.9 | 85.4 | 102.1 | -4.3 |
| Cc1ccc(-c2nc3nc(C)cc(N4CCN(c5cccc(C)c5C)CC4)n3n2)cc1 | 101.7 | 100.3 | 105.9 | 3.3 |
| CCOCCOC(=O)C1=C(C)NC2=C(C(=O)CC(c3ccc(Cl)cc3)C2)C1c1cc2c(cc1Cl)OCO2 (stereo not given) | . | . | 99.9 | -19.4 |
| O=C(NCc1ccccc1)c1ccc(S(=O)(=O)C(F)F)cc1 | 103.9 | 82.8 | . | 12.7 |
| C(=N/N1CCN(c2ccccc2)CC1)/c1ccccc1 | 95.5 | 82.5 | 102.2 | . |
| CSCC(=O)OCc1cc(=O)oc2cc3c(cc12)CCC3 | 98.5 | 92.9 | . | -18.6 |
| CCn1c(C(=O)N2CCC(C(=O)NCCCOC)CC2)cc2sccc21 | 105.1 | 82.3 | 106.0 | 5.9 |
| OC(CNC1CCN(Cc2ccccc2)CC1)CSc1ccc(F)cc1 (stereo not given) | 99.5 | 92.2 | 114.3 | . |
| COC(=O)C(C(=O)N1CCCc2ccccc21)C1CCCC1 (stereo not given) | 119.2 | 96.5 | 101.4 | -16.8 |
| Cc1cc(S(=O)(=O)NN)c(Cl)cc1Cl | 103.0 | 88.2 | 96.5 | . |
| O=C(COc1coc(CN2CCc3ccccc3C2)cc1=O)N1CCCC1 | 91.1 | 94.8 | 100.4 | -16.8 |
| N#CC1(NC(=O)COc2ccc3ccccc3c2)CCCC1 | 92.0 | 82.9 | . | -33.9 |
| O=c1c2ccccc2c(=O)n2n1Cc1ccccc1C2 | 89.9 | 87.4 | 101.2 | -31.4 |
| COc1ccc(OC)c(NC(=O)C2=C(C)C(=O)OC23CCCCCC3)c1 | 108.7 | 113.9 | 104.9 | . |

The last 2 records of the part above lead into the next.
| SMILES | Sa growth inh | Sa growth inh second temp | GIV-Gai inh | HCMV NEC inh |
| --- | --- | --- | --- | --- |
| O=c1c2ccccc2c(=O)n2n1Cc1ccccc1C2 | 89.9 | 87.4 | 101.2 | -31.4 |
| COc1ccc(OC)c(NC(=O)C2=C(C)C(=O)OC23CCCCCC3)c1 | 108.7 | 113.9 | 104.9 | . |
| CC1(C)C2CCC1(CS(=O)(=O)N1CCCC1)C(=O)C2 (stereo not given) | 101.3 | 89.4 | . | -5.5 |
| O=C(COC(=O)c1ccco1)N=c1sccn1Cc1ccccc1Cl | 104.2 | 93.8 | . | -27.4 |
| CCOC(=O)CSc1n[nH]c(CN2c3ccccc3Sc3ccccc32)n1 | 136.0 | 92.5 | 99.4 | 13.5 |
| Cc1noc(C)c1COc1cccc(C(=O)OCC(=O)c2ccc[nH]2)c1 | 98.0 | 92.7 | . | 7.3 |
| O=C1C(=O)N(c2cccnc2)C(c2ccccc2)/C1=C(/O)c1ccccc1 (stereo not given) | 95.9 | 89.6 | . | -35.3 |
| CC1CCCCN1C(=O)CCS(=O)(=O)c1ccc2c(c1)n(C)c(=O)c(=O)n2C (stereo not given) | 96.6 | 94.0 | 102.6 | . |
| Cn1ccnc1C(=O)c1cc(SCC(=O)N2CCOCC2)nc2ccccc12 | 103.1 | 89.3 | . | -18.5 |
| Cc1ccc(NC(=O)c2ccc3noc(-c4ccccc4)c3c2)cc1F | 94.7 | 92.3 | 103.9 | -34.2 |
| Cc1cc(C)c(NC(=O)Cn2nnc(C(=O)Nc3ccc(F)cc3F)c2N)c(C)c1 | 78.4 | 86.1 | 99.2 | . |
| COc1cc(NC(=O)Cn2ncc3c([nH]c4ccc(C)cc43)c2=O)cc(OC)c1OC | 74.2 | 95.5 | 99.8 | . |
| Cc1nc(Nc2nc3ccccc3o2)ncc1C(=O)Nc1ccccc1 | 82.0 | 87.5 | 100.6 | -32.8 |
| O=C(Cc1ccc(NC2=NC3CS(=O)(=O)CC3S2)cc1)Nc1ccc(F)c(Cl)c1 (stereo not given) | 106.5 | 91.1 | 101.0 | 0.3 |
| Oc1ccccc1C=Nc1cccc2ccccc12 | 77.6 | 82.5 | . | -14.3 |
| Cc1ccc(-n2nc3c(c2NC(=O)c2ccc(S(=O)(=O)N4CCOCC4)cc2)CSC3)cc1 | . | . | 102.6 | -4.7 |
| O=C(O)c1ccccc1-c1ccccc1C(=O)NCCN1CCNC1=O | 95.8 | 95.3 | 104.8 | 5.6 |
| CC(C)C(C(=O)O)N1C(=O)c2ccc(C(=O)O)cc2C1=O (stereo not given) | 91.3 | 80.8 | 102.9 | -25.4 |
| CN(C)c1ccc(C(CNC(=O)COc2ccc(Cl)cc2)N2CCOCC2)cc1 (stereo not given) | 83.2 | 88.9 | 104.7 | . |
| O=C(CCc1n[nH]c(=O)[nH]c1=O)Nc1cccc(Br)c1 | 101.9 | 95.3 | 110.1 | 0.0 |
| CC1=CC(=O)C(N(C)c2ccccc2)=CC1=O | 109.0 | 3.5 | . | -13.6 |
| CNC(=S)N(C)/N=C1/C(=O)N(Cc2c(Cl)cccc2Cl)c2ccccc21 | 124.4 | 89.7 | . | 0.4 |
| CSc1nc(C)c2cc(C)ccc2n1 | 96.6 | 104.6 | 106.3 | -12.4 |
| O=C(CN1CCCN(Cc2ccccc2F)S1(=O)=O)NCc1ccccc1Cl | . | . | 100.1 | 0.0 |
| Cc1ccccc1COc1ncnc2cc(Cl)ccc12 | 114.0 | 96.3 | 100.0 | -2.1 |
| CCOc1ccc(NC(=O)CCNC(=O)Cn2ccc3ccccc3c2=O)cc1 | 97.4 | 94.7 | 97.8 | 5.3 |
| Nc1nc2c(C(=O)N3CCOCC3)nnn2c2ccccc12 | 76.4 | 90.2 | 102.2 | -32.2 |
| Cn1nc(CC(=O)Nc2cccc3ncccc23)c2ccccc2c1=O | 95.4 | 82.6 | 103.6 | -21.6 |
| O=C(NNc1nccc(C(F)(F)F)n1)Nc1cccc(Cl)c1 | 99.5 | 91.2 | 104.8 | -33.9 |
| CC(NC(=O)c1ccc2nc(Cc3ccccc3)oc2c1)c1ccccc1 (stereo not given) | 82.8 | 84.4 | 100.7 | . |
| COc1ccccc1NC(=O)c1oc2ccccc2c1NC(=O)c1c(F)cccc1F | 113.0 | 91.5 | 103.4 | -5.2 |
| Cc1ccc(NC(=O)CSc2nc(-c3ccccc3)no2)cc1 | . | . | 102.5 | -11.7 |

Copied from the entries so far for reference:
| SMILES | Sa growth inh | Sa growth inh second temp | GIV-Gai inh | HCMV NEC inh |
| --- | --- | --- | --- | --- |
| Oc1ccccc1C=Nc1cccc2ccccc12 | 77.6 | 82.5 | . | -14.3 |
| Cc1ccc(-n2nc3c(c2NC(=O)c2ccc(S(=O)(=O)N4CCOCC4)cc2)CSC3)cc1 | . | . | 102.6 | -4.7 |
| O=C(O)c1ccccc1-c1ccccc1C(=O)NCCN1CCNC1=O | 95.8 | 95.3 | 104.8 | 5.6 |
| CC(C)C(C(=O)O)N1C(=O)c2ccc(C(=O)O)cc2C1=O (stereo not given) | 91.3 | 80.8 | 102.9 | -25.4 |
| CN(C)c1ccc(C(CNC(=O)COc2ccc(Cl)cc2)N2CCOCC2)cc1 (stereo not given) | 83.2 | 88.9 | 104.7 | . |
| O=C(CCc1n[nH]c(=O)[nH]c1=O)Nc1cccc(Br)c1 | 101.9 | 95.3 | 110.1 | 0.0 |
| CC1=CC(=O)C(N(C)c2ccccc2)=CC1=O | 109.0 | 3.5 | . | -13.6 |
| CNC(=S)N(C)/N=C1/C(=O)N(Cc2c(Cl)cccc2Cl)c2ccccc21 | 124.4 | 89.7 | . | 0.4 |
| CSc1nc(C)c2cc(C)ccc2n1 | 96.6 | 104.6 | 106.3 | -12.4 |
| O=C(CN1CCCN(Cc2ccccc2F)S1(=O)=O)NCc1ccccc1Cl | . | . | 100.1 | 0.0 |
| Cc1ccccc1COc1ncnc2cc(Cl)ccc12 | 114.0 | 96.3 | 100.0 | -2.1 |
| CCOc1ccc(NC(=O)CCNC(=O)Cn2ccc3ccccc3c2=O)cc1 | 97.4 | 94.7 | 97.8 | 5.3 |
| Nc1nc2c(C(=O)N3CCOCC3)nnn2c2ccccc12 | 76.4 | 90.2 | 102.2 | -32.2 |
| Cn1nc(CC(=O)Nc2cccc3ncccc23)c2ccccc2c1=O | 95.4 | 82.6 | 103.6 | -21.6 |
| O=C(NNc1nccc(C(F)(F)F)n1)Nc1cccc(Cl)c1 | 99.5 | 91.2 | 104.8 | -33.9 |
| CC(NC(=O)c1ccc2nc(Cc3ccccc3)oc2c1)c1ccccc1 (stereo not given) | 82.8 | 84.4 | 100.7 | . |
| COc1ccccc1NC(=O)c1oc2ccccc2c1NC(=O)c1c(F)cccc1F | 113.0 | 91.5 | 103.4 | -5.2 |
| Cc1ccc(NC(=O)CSc2nc(-c3ccccc3)no2)cc1 | . | . | 102.5 | -11.7 |

Continuation.
| SMILES | Sa growth inh | Sa growth inh second temp | GIV-Gai inh | HCMV NEC inh |
| --- | --- | --- | --- | --- |
| CCN(CC)c1ncnc2sc(C(=O)N(C)C3CCCCC3)c(C)c12 | 94.3 | 92.8 | 99.9 | . |
| CC1CCN(c2nc3nonc3nc2Nc2ccc(F)cc2)CC1 | 90.0 | 83.0 | 106.5 | 10.0 |
| CCCN1C(=O)c2cc(C(=O)NCCc3cccc(C)c3)ccc2C1O (stereo not given) | 95.8 | 88.7 | 106.3 | -27.3 |
| Cc1ccc(Cn2cccc(NC(=O)c3ccncc3)c2=O)cc1 | 98.0 | 90.1 | 97.2 | -3.1 |
| CC(=O)n1nccc1-c1cc(-c2ccccc2)no1 | 98.9 | 54.6 | 95.3 | 5.2 |
| Cc1ccc2c(CC(=O)Nc3nnc(C(C)C)s3)coc2c1C | 100.9 | 96.0 | 110.2 | 13.7 |
| O=C1c2cccc3cccc(c23)C12OCCS2 (stereo not given) | 104.4 | 84.9 | 110.8 | -63.4 |
| C=CCNc1ccc(F)c(F)c1N1CCCCCC1=O | 132.4 | 84.6 | . | -32.8 |
| CCOC(=O)c1cccc(NS(=O)(=O)c2c(C(=O)N3CCCC3)c(C)n(C)c2C)c1 | . | . | 100.0 | -23.2 |
| Cc1ccccc1CN1CCC(CNc2nc(-c3ccccc3)no2)CC1 | 99.0 | 76.3 | 102.5 | -30.0 |
| C[N+]1(C2CCC3CCC2C3=O)CCCC1 (stereo not given) | 85.7 | 104.0 | 101.9 | . |
| CN1CCCCCC1=Nc1cccc(F)c1 | 92.5 | 93.7 | 106.1 | . |
| O=C(Cn1nnnc1-c1ccccc1F)Nc1cccc2ncccc12 | . | . | 105.1 | -14.5 |
| CCOC(=O)c1ccc(N=c2sc(C(=O)OC)cc(=O)n2C2CC2)cc1 | 88.9 | 77.4 | 100.5 | -13.9 |
| CCOc1ccccc1NC(=O)NC1CC2CCCC(C1)N2Cc1nnnn1CCc1ccccc1 (stereo not given) | 112.0 | 91.2 | 106.8 | 2.5 |
| Cc1c(C(=O)O)nnn1-c1ccc(Cl)cc1 | . | . | 100.8 | -22.9 |
| CCOC(=O)N1CCC(NC(=O)c2ccc3c(c2)NC(=O)C2CCCN32)CC1 (stereo not given) | 84.9 | 79.5 | 108.1 | -12.7 |
| O=C(O)CSC1CC(=O)N(c2cccc(Cl)c2)C1=O (stereo not given) | 83.6 | 76.6 | 102.3 | -11.6 |

High-throughput results from PubChem.
